Biofilm kill mix = mixtures killing C. albicans biofilm | C. albicans biofilm persisters + clotrimazole, fluorescence viability; primary screen in compound mixtures of four per well | inhibition, % at 7.6 µM | hit rate 0.02% among 120,000;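 active = inhibition above 30.3% in the primary screen of four-compound pools, then above 30% when the compound was retested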;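 note: compounds exposed to preformed 24 h biofilms for 48 h; the number belongs to the whole pool; some results filed as inactive read as strong as hits; inactives centre near 12; 0% = biofilm with clotrimazole alone and 100% = kill control; retested singly at about 60 µM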
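Test system: C. albicans biofilms. Buffer or medium: RPMI/MOPS medium, pH 7.0. Timing: 48 h compound exposure at 37 °C. Technique: Alamar Blue fluorescence. Evaluation: percent inhibition of biofilm viability.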
The depositor's hits bear a star. A portion of the library; rates above refer to the full screens.

SMILES | Biofilm kill mix
NS(=O)(=O)c1ccc(NC(=S)NC2CCCCCC2)cc1 | 14
CCOC(=O)c1c(C)[nH]c(C)c1C(=O)COC(=O)/C=C/c1ccc(OC(F)F)cc1 | 21
COc1ccc(/C=C/C(=O)c2ccc(C)c([N+](=O)[O-])c2)cc1O | -6
CN(C)c1ccc(C(=O)OCC(=O)N2CCCCCC2)cc1 | 14
Cc1cc(C)c(Cn2ncn(-c3ccc(Br)cc3)c2=O)c(C)c1 | 8
Cc1ccc(C(=O)CSc2nc(-c3ccccc3)ccc2C#N)cc1 | 12
O=c1[nH]c(/C=C/c2ccccc2OC(F)F)nc2c1cnn2-c1ccccc1 | 11
O=C(COC(=O)c1ccco1)NCc1ccc2c(c1)OCO2 | 17
Cc1ccc(C(=O)C(C)OC(=O)c2ccccc2[N+](=O)[O-])cc1 (centres undefined) | 13
CC1(OC(=O)CCc2ccccc2)C(=O)C=C2C=C(c3ccc(C#N)cc3)N(C(CO)CO)C=C2C1=O (centres undefined) | 9
COc1ccc(CCNC(=O)CSc2nc3c(c(=O)n(C)c(=O)n3C)n2C)cc1OC | 5
N#CC1CC(c2ccccc2)=NN1c1ccccc1[N+](=O)[O-] (centres undefined) | -8
Cc1cccc(NC(=O)Cn2c([N+](=O)[O-])cnc2C)c1C | 15
O=C(NCC(c1cccnc1)N1CCN(c2ccc(F)cc2)CC1)c1ccco1 (centres undefined) | 17
O=S(=O)(c1ccc(NC(=S)N2CCN(c3ccc(O)cc3)CC2)cc1)N1CCOCC1 | 8
Cc1cc(C)cc(NC(=O)N2CCC(NC(=O)c3ccccc3C)CC2)c1 | -6
O=C(Nc1ccccc1)OCc1cncs1 | 8
O=C(CCSCCC(=O)NCc1ccc(F)cc1)NCc1ccc(F)cc1 | 11
C=CCSC(=S)Nc1c(C)n(C)n(-c2ccccc2)c1=O | 16
Cc1ccc(NC(=O)COC(=O)CN2C(=O)NC3(CCCC3)C2=O)cc1S(=O)(=O)N(C)C | 7
Cc1ccc2nc(NCCC(=O)O)nc(-c3ccccc3)c2c1 | 4
OCC1(Cc2ccccc2)CCN(Cc2cccc(F)c2F)CC1 | 14
Cc1c(Cl)cnc(NC(=O)COC(=O)CCC(=O)c2cccs2)c1Cl | 23
Cc1ccc(N2CCN(/N=C/C=C/c3ccccc3)CC2)cc1 | 10
O=S(=O)(NCc1ccco1)c1ccc(S(=O)(=O)N2CCCC2)cc1 | 17

Already shown: an excerpt of the list.
SMILES | Biofilm kill mix
Cc1ccc(NC(=O)COC(=O)CN2C(=O)NC3(CCCC3)C2=O)cc1S(=O)(=O)N(C)C | 7
Cc1ccc2nc(NCCC(=O)O)nc(-c3ccccc3)c2c1 | 4
OCC1(Cc2ccccc2)CCN(Cc2cccc(F)c2F)CC1 | 14
Cc1c(Cl)cnc(NC(=O)COC(=O)CCC(=O)c2cccs2)c1Cl | 23
Cc1ccc(N2CCN(/N=C/C=C/c3ccccc3)CC2)cc1 | 10
O=S(=O)(NCc1ccco1)c1ccc(S(=O)(=O)N2CCCC2)cc1 | 17

Next compounds
SMILES | Biofilm kill mix
CCOC(=O)CNC(=S)N(Cc1ccccc1)Cc1ccccc1F | 6
COc1cc(C(=O)N2C(=O)c3cccc(N)c3C2=O)cc(OC)c1OC | 19
CN1N=C(c2ccc(Cl)cc2)CC(c2ccc(Cl)cc2)C1=O (centres undefined) | 6
CCOC(=O)c1c(C)[nH]c(C=C2C(=O)CCCC2=O)c1O | 9
S=c1[nH]nc(-c2cccnc2)n1/N=C/c1ccccc1 | 24
CC(C)Oc1ccc(C2CC(=O)N(c3cccc(Br)c3)C2=O)cc1 (centres undefined) | 32
O=C(N/N=C\c1cccc(F)c1)c1ccc(Cn2cc(Br)c([N+](=O)[O-])n2)o1 | 12
O=C(CSc1nnc(-c2ccc(Cl)cc2)n1-c1ccc(Cl)cc1)N/N=C/c1ccccc1C(=O)O | 23
CC(C)C(=O)c1cn(CC(=O)O)c2ccccc12 | 16
Cn1c(N)c(C(=O)COC(=O)c2ccccn2)c(=O)n(C)c1=O | 14
O=C(CN1CCN(Cc2cccc(Cl)c2)C1=O)NCc1cccs1 | 15
Clc1ccc(-c2csc3ncnc(Cl)c23)cc1 | 12
Cc1ccccc1NC(=O)C1CC(=O)n2ncnc2N1 (centres undefined) | 19
COc1cc(C)c(C(=O)Oc2cc(C)c(C(=O)O)c(O)c2)c(O)c1 | 21
COc1ccc(-c2csc3ncn(-c4ccccc4OC)c(=O)c23)cc1OC | 14
COCCNC(=S)N/N=C1\CC(C)CC(C)(C)C1 (centres undefined) | 8
Cn1nc(C(=O)NCc2ccco2)c2ccccc2c1=O | 7
Clc1ccc(-c2noc(/C=C/c3ccccc3)n2)cc1 | 12
Cc1cc(C(=O)Nc2ccc3[nH]ccc3c2)no1 | 24
O=C(CSc1ncn[nH]1)NN(c1ccccc1)c1ccccc1 | 11
C=CCSC1=NC(=O)/C(=C/c2cccs2)S1 | 15
O=C(c1ccco1)N1CCc2ccccc21 | 14
O=C(NN1C(=O)C2C3c4ccccc4C(c4ccccc43)C2C1=O)c1ccc(Cl)cc1 (centres undefined) | 12
CCOC(=O)CN1C(=O)C(O)(CC(=O)c2ccc3c(c2)CCCC3)c2ccccc21 (centres undefined) | 19
O=C(CC1SC(=O)N(Cc2ccccc2)C1=O)Nc1nccs1 (centres undefined) | 20
COc1ccccc1OCCC(=O)O | 7
O=C(Nc1c2c(nc3ccccc13)CCCC2)c1ccccc1F | 4
CCOC(=O)C1CCCN(S(=O)(=O)c2ccc(NC(C)=O)cc2)C1 (centres undefined) | 8
CCOC(=O)/C(C#N)=C/c1ccc(OCC(=O)Nc2ccc(C)c(C)c2)c(OC)c1 | 11
COc1ccc(C(=O)COC(=O)c2cccnc2SC)cc1 | 7
N#Cc1cc(NC2CCCC2)c([N+](=O)[O-])cc1C#N | 5
Cc1cc(F)ccc1NC(=O)C1CCCO1 (centres undefined) | 13
COc1cc(/C=N/NC(=O)COc2ccc(-n3cnnn3)cc2)ccc1OCC(N)=O | 8
CCOC(=O)CCCc1ccc(/C(C)=N/NC(=S)NC)cc1 | 13
O=C(N/N=C1\CCCc2ccccc21)c1ccccc1Cl | 13
COc1c(C(=O)NNC(=O)c2ccccc2Cl)csc1Br | 15
Cc1ccc(CN2CCN(Cc3ccc(O)cc3)CC2CCO)o1 (centres undefined) | 0
C/C(=N\NC(=O)CN(c1ccccc1)S(C)(=O)=O)c1ccccc1O | 16
COCc1cc(/C=N\NC(=O)Cc2ccc(Cl)cc2)ccc1OC | 13
C/C(=N\NC(=O)CC#N)c1ccc(Oc2ccccc2)cc1 | 11
Cc1ccc(C(=O)O/N=C/c2ccc(N(C)C)cc2)cc1 | 5
Cc1oc(-c2ccc(Cl)cc2)cc1C(=O)NC1CCN(Cc2ccccc2)CC1 | 13
C/C=C(\C)C(=O)NCCN1C2=NC[C@@H](Cc3ccccc3)N2C[C@H]1Cc1ccc(O)cc1 | 19
O=C(c1cc2ccccc2o1)N1CC=C(c2ccccc2)CC1 | 17
CCOCCCNC(C(=O)Nc1ccc(OC)c(Cl)c1)c1ccccc1 (centres undefined) | 3
S=C(NCCc1ccc(Cl)cc1)NCc1ccco1 | 18
CC(C)C(=O)Nc1csc(C(F)(F)F)c1-c1ccccc1 | 13
COc1ccc(S(=O)(=O)Nc2cccnc2)cc1 | 18
CC(C)(C)C(=O)N/C(N)=N/c1nc2ccccc2o1 | 18
O=C(NNS(=O)(=O)c1ccccc1)c1ccc(O)cc1 | 2

2 compounds drawn at random from the list so far:
SMILES | Biofilm kill mix
Cc1cc(C(=O)Nc2ccc3[nH]ccc3c2)no1 | 24
Cc1ccc(N2CCN(/N=C/C=C/c3ccccc3)CC2)cc1 | 10

Carrying on.
SMILES | Biofilm kill mix
Cc1cccc(OCC(=O)N/N=C/c2cc([N+](=O)[O-])ccc2N2CCOCC2)c1 | 7
Cc1ccccc1NC(=S)NCc1ccc(Cl)cc1 | 12
Fc1ccc(NC(=S)N2CCc3ccccc3C2)c(F)c1 | 15
O=C(O)CSc1ncccn1 | 6
CCOc1cc(/C=N\NC(=O)CC(=O)NCCc2ccccc2)ccc1O | 12
O=C(CCSc1ccccc1Cl)Nc1cccc([N+](=O)[O-])c1 | 11
CCOC(=O)CCNC(=O)N1CCCC(CNS(=O)(=O)c2cccs2)C1 (centres undefined) | -2
CC(C)(C)OC(=O)C(Cc1ccc(OC(C)(C)C)cc1)NC(=O)CNC(=O)OCc1ccccc1 (centres undefined) | 19
O=C(Nc1ccccc1-c1nnn(CC(=O)N2CCCc3ccccc32)n1)c1ccc(Cl)cc1 | 13
COc1ccc(CN(Cc2cc3ccc(C)cc3[nH]c2=O)Cc2nnnn2C2CCCC2)cc1 | 10
COC(=O)C1CCN(C(=O)COC(=O)CCc2nc3ccccc3c(=O)[nH]2)CC1 | 11
O=C(COC(=O)CNC(=O)c1ccco1)NCc1ccc(F)cc1 | 7
CC(C)CCNC(=O)c1onc(CSc2ccc(Cl)cc2)c1C(=O)NCCC(C)C | 13
COc1cc(C)ccc1OCCOCCOc1ccccc1[N+](=O)[O-] | 20
CCCCn1nc(C(=O)OCC(=O)Nc2sccc2C(N)=O)c2ccccc2c1=O | 9
CCOC(=O)c1c(C)[nH]c(C)c1C(=O)CSc1nc2ccccc2c(=O)n1-c1ccc(F)cc1 | -1
NNC(=O)c1cc2cc3ccccc3nc2s1 | 19
O=C(c1cc2cc([N+](=O)[O-])ccc2oc1=O)N1CCN(C2CCCCC2)CC1 | 11
Cc1c(C(=O)NC(=S)Nc2ccc(N3CCOCC3)cc2)cccc1[N+](=O)[O-] | 9
COc1ccc(CC(=O)OCC(=O)NCc2ccc(Cl)cc2)cc1 | 9
N#C/C(=C\c1cccnc1)c1ccc(Br)cc1 | 8
Cc1c(N)cccc1-n1cnnn1 | 11
Fc1ccccc1OCC1CCCN(Cc2nc(CC3CC3)no2)C1 (centres undefined) | -1
NS(=O)(=O)c1ccc(CCNC(=O)COC(=O)CCSc2ccc(Cl)cc2)cc1 | 23
Cc1cc(C)cc(N2CC(O)=C(c3nc4ccccc4c(=O)[nH]3)C2=N)c1 | -6
Cc1ccc(C)c(NC(=S)N(C2CCCCC2)C(C)c2cccnc2)c1 (centres undefined) | 15
O=C(CCCN1C(=O)/C(=C\c2cccc(Br)c2)SC1=S)Nc1cccnc1 | 10
Cc1ccc2nsnc2c1NC(=O)c1sc2ccccc2c1Cl | 11
CCOC(=O)C1CCCN(C(=O)c2ccc(Cl)cc2)C1 (centres undefined) | 8
CCNC(=O)COC(=O)c1cccc(Br)c1 | 16
COc1ccc(CCNc2cc(C)nc3c(-c4ccc(Cl)cc4)cnn23)cc1OC | 8
N#CC(C#N)=C1C(=O)N(CCN2CCOCC2)c2ccccc21 | 10
Cn1cccc1/C=C1\SC(=S)N(NC(=O)c2ccccc2)C1=O | 2
CC1=CC(C)C2(COC(=O)Nc3ccccc3)COC(C)C1C2C (centres undefined) | 11
Cc1nc(-c2cccc(Cl)c2)n[nH]1 | 17
COc1cc(S(=O)(=O)Nc2ccc(C)cc2)ccc1N=Cc1c(C)c(C#N)c(=O)n(C)c1O | 9
CC(C)COc1ccc(-c2cc(C(=O)NN)[nH]n2)cc1 | 6
COc1ccc(CN(C)C(=O)CCl)cc1 | 15
CCOC(=O)C1(CCOc2ccccc2)CCN(Cc2cccc3c2OCO3)CC1 | 2
Cc1cc(C(F)(F)F)n(-c2nc(C(=O)NNS(=O)(=O)c3ccccc3[N+](=O)[O-])cs2)n1 | 8
CN1CCN(C(=O)C2=C[C@@H](c3ccc(C(F)(F)F)cc3)C[C@@H](OCc3ccc(CO)cc3)O2)CC1 | 19
COc1ccc(NC(=O)Cn2c(=O)n(-c3ccc(OC)cc3OC)c(=O)c3c(C)c(C)sc32)cc1 | 12
Cc1ccc(-c2nnc(SCC(=O)Nc3cccc(C(=O)N4CCOCC4)c3)n2C)cc1 | 8
CC(CC(=O)N1CCN(c2ccccc2)CC1)c1ccccc1 (centres undefined) | -18
O=C(c1cccc(Oc2ccccc2)c1)N1CCN(c2ccccn2)CC1 | -1
CC(C)c1ccc(N=C2NN=C(c3cccs3)CS2)cc1 | 2
COc1cccc(CNC(=O)CCC2CCCN(C3CCOCC3)C2)c1 (centres undefined) | 24
O=C(C1CCN(S(=O)(=O)N2CCOCC2)CC1)N1CCN(c2ccccc2F)CC1 | 29
CS(=O)(=O)N(C(=O)NC(=O)NC12CC3CC(CC(C3)C1)C2)C1CCCCC1 | 17
CC(C)CCN1CCN(Cc2ccsc2)CC1CCO (centres undefined) | 9

Later entries:
SMILES | Biofilm kill mix
COc1ccc(/C=N/NC(=O)c2ccncc2)cc1CSc1nc2ccccc2s1 | 17
O=C(COC(=O)CCCSc1nc2ccccc2[nH]1)Nc1ccc(Cl)cc1 | 7
O=C(COC(=O)c1ccccc1C(=O)c1ccc(Cl)cc1)NCc1ccccc1 | 21
CC(=O)c1c(N2CCN(Cc3ccccc3)CC2)nc(=S)n(Cc2ccccc2)c1C | 11
Oc1cccc2ccc[n+](CC(O)Cn3c4ccccc4c4ccccc43)c12 (centres undefined) | -8
COC(=O)c1c(NC(C)=O)sc(C(=O)Nc2ccccc2OC)c1C | 25
CCn1c(SCC(=O)N2c3ccccc3CCc3ccccc32)nnc1-c1ccc(OC)cc1 | 11
Cc1nn2c(C)c(C(=O)Nc3ccccc3)cnc2c1-c1ccccc1 | 16

Compound activity from PubChem BioAssay.
